Screening data: PubChem, several laboratories
Arbovirus inh: antivirals against arbovirus infection, primary screen, cell-based, full library, 10K replicate subset; arbovirus infection cell-based antiviral screen; inhibition, % at 10 µM; 0.37% of 200,000 active;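 active means inhibition from about 30%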;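 further: bluetongue infection of BSR cells; cell survival read as ATP light after 72 h; 0% = infected wells without compound and 100% = uninfected wells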
YopH PTP inh: YopH tyrosine phosphatase inhibitors, primary screen, biochemical, fluorescence Ex485/Em525. AID 898, 2007. 0.16% of 140,000 active. inhibition, %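 (about 10 µM by stock and volumes)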. YopH tyrosine phosphatase [Yersinia enterocolitica];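 active means inhibition of 50% or more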;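 further: controls were vehicle for no effect and minimum signal wells for full effect; inactives centre near -20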
RecA intein inh: Mtb RecA intein splicing inhibitors, primary screen, biochemical, fluorescence, HTS; Protein RecA (Mycobacterium tuberculosis (strain ATCC 25618 / H37Rv)), P9WHJ3; 0.75% of 290,000 active; inhibition, %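 (about 9 µM by stock and volumes)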; cell-free RecA intein splicing; in the data active means inhibition above about 30%; inconclusive means no clear call, values can overlap the other calls;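 further: 0% = vehicle wells and 100% = reference inhibitor control wells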
Target sequence (P9WHJ3 whole entry, looked up): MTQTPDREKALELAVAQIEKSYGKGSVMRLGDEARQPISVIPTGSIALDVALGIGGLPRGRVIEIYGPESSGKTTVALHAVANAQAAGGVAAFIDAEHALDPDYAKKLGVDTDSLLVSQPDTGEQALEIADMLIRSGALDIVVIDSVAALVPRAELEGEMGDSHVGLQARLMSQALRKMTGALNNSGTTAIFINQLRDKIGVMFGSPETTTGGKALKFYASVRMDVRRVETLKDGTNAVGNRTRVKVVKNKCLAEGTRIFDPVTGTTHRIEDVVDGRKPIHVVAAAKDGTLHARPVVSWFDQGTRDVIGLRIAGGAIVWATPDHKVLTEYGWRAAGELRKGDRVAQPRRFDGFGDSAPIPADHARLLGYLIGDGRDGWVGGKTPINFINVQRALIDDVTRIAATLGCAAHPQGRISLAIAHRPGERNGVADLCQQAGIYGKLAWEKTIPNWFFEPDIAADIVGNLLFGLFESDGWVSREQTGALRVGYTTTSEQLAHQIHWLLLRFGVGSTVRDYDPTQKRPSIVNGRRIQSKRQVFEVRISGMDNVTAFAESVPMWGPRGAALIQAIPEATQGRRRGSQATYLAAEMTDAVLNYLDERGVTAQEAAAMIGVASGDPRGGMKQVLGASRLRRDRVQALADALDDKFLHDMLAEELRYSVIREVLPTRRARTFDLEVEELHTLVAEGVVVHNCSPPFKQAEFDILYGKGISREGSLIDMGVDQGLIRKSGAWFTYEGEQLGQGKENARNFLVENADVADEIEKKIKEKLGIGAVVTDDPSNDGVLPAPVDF
Mtb betalactam: beta-lactam sensitization of Mtb H37Rv, H37Rv; inhibition, % at 25 µM; M. tuberculosis H37Rv growth with meropenem, percent inhibition; hits of this screen are not shown here; 0.27% of 330,000 active; AID 434955, 2010;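 active means about 74% or more and at least 40 points above the plate without the antibiotic, then above 30% in a dose series; inconclusive means first-round hits that could not be retested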;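 further: growth measured after seven days incubation then overnight dye step; 0% = bacteria only wells and 100% = bacteria with antibiotic; twin plates without the antibiotic show which effects depend on it; some results filed as inactive read as strong as hits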
Mtb growth: M. tuberculosis H37Rv growth inhibitors, H37Rv strain (AID 1626); M. tuberculosis H37Rv growth inhibition; higher % means a stronger effect; one-dose inhibition, % at 10 µM; IC50 in µM for titrated hits; 0.95% of 220,000 active;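 active means confirmed in a dose series; inconclusive means inhibition above 80% but not taken into the dose series; inactive means below 80% or under 30% at every dose of the series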;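 further: bacteria incubated seven days before Alamar blue readout; 0% = bacteria only wells and 100% = bacteria with antibiotic wells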
Arbovirus inh repeat: second read-out of Arbovirus inh, no call of its own (marks repeat the call); inhibition, %; measured here: 10K subset replicate screen; many hits read low in the repeat;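 first of two repeat runs on a subset; 0% = infected and 100% = uninfected wells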
* hit, by the source's call; ? = inconclusive; . = no result given.

SMILES	Arbovirus inh	YopH PTP inh	RecA intein inh	Mtb betalactam	Mtb growth	others
CCOc1ccccc1N1CCN(C(=O)CNC(=O)c2sc3ccccc3c2Cl)CC1	.	.	1.7	58	.
Cn1ncc(Cl)c1C(=O)N1CCc2ccccc21	-4	-42	-2.2	-6	0%
O=C1N/C(=N\N=C\c2cccs2)SC1Cc1cccc(Cl)c1Cl (stereo not given)	-22	-24	0.1	22	?
COc1ccc(OC)c(CN2CCN(S(=O)(=O)c3ccc(NC(C)=O)cc3)CC2)c1	11	.	-0.4	-2	7%
Cc1ccc(N(Cc2ccccc2)C(=O)c2ccc(Cl)c(S(=O)(=O)N3CCOCC3)c2)cc1	.	.	12	-10	.
CC(=O)Nc1ccc(S(=O)(=O)N2CCN(c3cnn(C)c(=O)c3Cl)CC2)cc1	7	.	-0.3	-6	-3%
COc1ccc(NC(=S)N(CCCN2CCOCC2)Cc2ccco2)cc1	23	.	1.3	3	-4%
N#Cc1nc(-c2cccs2)oc1NCC1CCCO1 (stereo not given)	2	4	-3.0	4	3%
Cc1ccc2c(Cl)cc(Cl)c(OCC(=O)Nc3cc(S(=O)(=O)N(C)C)ccc3C)c2n1	2	4	11	-7	-8%
COc1cccc(/C=C2\SC(N3CCCC(C)C3)=NC2=O)c1OC (stereo not given)	.	.	0.0	-7	.
S=C(NCc1ccco1)Nc1ccc(Cl)c(Cl)c1	-35	-21	8.3	26	8%
CCN(CC)S(=O)(=O)c1ccc2oc(C(=O)NCCN3CCOCC3)c(C)c2c1	.	.	-0.6	0	.
O=C(CC1C(=O)NCCN1Cc1ccccc1C(F)(F)F)NC1CCCCCC1 (stereo not given)	.	.	3.6	1	.
N#CCCn1cc(C(=O)Nc2ccc(C(=O)O)cc2)c(-c2ccc([N+](=O)[O-])cc2)n1	6	.	0.2	-3	3%
COc1cccc(/C=N/c2nc3ccccc3n2C)c1O	.	.	-1.9	-21	.
CCCCc1ncc(CN2CCC(n3nccc3NC(=O)C(OC)c3ccccc3)CC2)[nH]1 (stereo not given)	.	.	-3.6	-19	.
O=C(CSc1nc(=O)n(Cc2ccccn2)c2c1CCC2)Nc1ccc(F)cc1F	.	.	0.3	0	.
Cc1cc(F)ccc1S(=O)(=O)N1CCCCC1CCNC(=O)C(=O)NCc1ccccn1 (stereo not given)	.	.	-3.5	-9	.
COc1ccc(N(C)S(=O)(=O)c2ccc(Cl)c(C(=O)NCCc3ccc(Cl)cc3)c2)cc1	-5	.	2.0	-1	9%
NC(=O)C1CCN(C(=O)COc2ccc3c4c(c(=O)oc3c2)CCCC4)CC1	.	.	-5.0	0	.
NC(=O)NC(=O)Nc1ccccc1Cl	-4	-12	.	-9	-13%
Cc1cc(C)cc(N2Cc3ccccc3C2)c1	12	-19	4.6	4	3%
O=C(c1ccccc1F)N1CCN(Cc2ccccc2F)CC1	1	7	0.5	-11	1%
COc1ccc(CCn2cc(C#N)c(=O)[nH]c2=O)cc1OC	3	.	-5.2	1	3%
CC1(C)CC(=O)C(C#N)=C(NCCCO)C1	-1	-6	0.5	1	-5%

(continued)
SMILES	Arbovirus inh	YopH PTP inh	RecA intein inh	Mtb betalactam	Mtb growth	others
C=CCn1c(SCC(=O)NCc2ccc3c(c2)OCO3)nc2scc(-c3ccccc3)c2c1=O	0	3	.	-2	2%
Cc1ccc(SC[C@H](c2ccccc2)N2CCN(CC(C)C)CCC2=O)cc1	.	.	4.9	.	-1%
Cc1cc(/C=C(\C#N)C(=O)NCc2ccco2)c(C)n1-c1ccc(C(=O)O)cc1	12	.	-1.3	-3	-3%
Cc1cccc(C(C)C)c1NC(=O)c1ccc(CN(c2ccccc2)S(=O)(=O)c2ccccc2)cc1	-5	-22	0.5	2	3%
CCOc1cc(/C=N/NC(=O)c2c(-c3ccccc3)noc2C)ccc1O	2	.	-3.0	-5	5%
Cc1cccc(OCCC(=O)NCC(=O)Nc2c(C)cccc2C)c1	-1	-8	0.4	4	.
Cn1nc([N+](=O)[O-])nc1Oc1ccccc1	-2	-34	0.2	-2	1%
CC(C)c1nc(Cl)c(C#N)c2c1CCCC2	17	-23	-3.8	-10	-8%
COc1ccccc1NC(=O)Cc1ccsc1	.	.	3.2	-2	.
COc1ccc2c(c1OC)C(=O)OC2Nc1nc(-c2cccc([N+](=O)[O-])c2)cs1 (stereo not given)	.	.	.	82	31%
CC(=O)NC(Cc1ccc(F)cc1)C(=O)NC1CCN(S(=O)(=O)c2ccccc2)CC1 (stereo not given)	.	.	-4.5	-1	.
CCC1(C(=O)c2ccccc2)C2c3ccccc3OC(=O)C21C(C)=O (stereo not given)	.	.	-1.5	7	2%
O=C1COc2ccc(S(=O)(=O)N3CCN(c4cccc(C(F)(F)F)c4)CC3)cc2N1	.	.	-0.5	-1	.
Cc1ccc(S(=O)(=O)N2CCN(C)CC2)cc1C(=O)NC1CCCCC1	.	.	-2.1	-10	.
Cc1onc(-c2ccccc2)c1C(=O)NC(=S)NNC(=O)c1ccc(O)cc1O	-28	-25	25	?	3%
Cc1ccsc1/C=N/Nc1nc(Cl)c(Cl)cc1Cl	8	-13	-2.0	-7	0%
COc1ccccc1N1CCN(C(c2ccccc2Cl)c2nnnn2C(C)(C)C)CC1 (stereo not given)	-17	-7	.	9	4%
Cn1c(=O)c2cn(-c3cccc4ccccc34)cc2n(C)c1=O	-13	.	1.1	-4	8%
CCc1ccc(NC(=O)/C(C#N)=C/c2cn(CC(=O)O)c3ccccc23)cc1	6	.	-4.9	10	-5%
COc1cc(OC)cc(C(=O)NC(C(=O)NCCN(C)C)C23CC4CC(CC(C4)C2)C3)c1 (stereo not given)	-11	-22	0.1	-3	-4%
COC(=O)c1c(-c2ccc(OC)cc2)oc2ccc(-c3cc(OC)c(OC)c(OC)c3)cc12	.	.	2.1	.	-3%
C=CCn1nc2ccccc2c1OC	.	.	-0.6	-2	.
CCN(c1ccc2c(c1)OCO2)S(=O)(=O)c1cc(Br)cc2c1N(C(C)=O)CC2	4	-26	-1.0	-4	-6%
CCN1CCN(c2c(Cl)cccc2NC(=O)c2ccc(Br)o2)CC1	-26	-13	-0.5	5	.
CCOCCCn1c(=N)c(C(=O)NCc2ccc3c(c2)OCO3)cc2c(=O)n3cccc(C)c3nc21	-15	-27	-13	50	27%

Retrieved one by one from the list above, two records:
SMILES	Arbovirus inh	YopH PTP inh	RecA intein inh	Mtb betalactam	Mtb growth	others
O=C1COc2ccc(S(=O)(=O)N3CCN(c4cccc(C(F)(F)F)c4)CC3)cc2N1	.	.	-0.5	-1	.
C=CCn1nc2ccccc2c1OC	.	.	-0.6	-2	.

Other entries
SMILES	Arbovirus inh	YopH PTP inh	RecA intein inh	Mtb betalactam	Mtb growth	others
CC(C)N1CCN(Cc2ccc(C#CC(C)(C)O)cc2)CC1CCO (stereo not given)	3	.	-0.7	12	-5%
COc1ccc2nc(NC(=O)CN3CCN(C)CC3)sc2c1	-1	-45	-1.3	-9	-5%
COC(=O)c1ccc(-c2cc(C(=O)O)c3cc4c(cc3n2)OCCO4)cc1	1	-63	2.2	77	-6%
Cc1cc(NC(=O)c2cnn3cccnc23)no1	7	-29	0.3	3	-3%
O=C(/C=C/c1ccc2c(c1)OCO2)NCCSCc1c(Cl)cccc1Cl	-37	-26	0.8	0	-3%
COc1ccc(C2(c3ccc(OC)cc3)NC(=O)N(CC(=O)Nc3ccc(C(N)=O)cc3)C2=O)cc1	.	.	2.6	-4	.
O=C1CCCc2ccccc2N1Cc1ccc(F)cc1	4	.	-1.1	4	1%
CC(C)[C@@H](NC(=O)OC(C)(C)C)C(=O)NCC1CCC(C(=O)N[C@@H](Cc2ccccc2)C(=O)O)CC1 (stereo not given in full)	.	.	-0.9	?	.
COc1cc(C)c(C)cc1S(=O)(=O)N1CCN(Cc2ccc3c(c2)OCO3)CC1	-11	-24	4.3	-5	4%
Cc1cc(C)c2sc(N(CCN(C)C)C(=O)c3cc(Cl)sc3Cl)nc2c1	0	.	2.0	20	7%
CC(C)c1ccc(Nc2nc(NCc3ccco3)nc(N3CCOCC3)n2)cc1	-14	-14	0.1	100	5µM*
c1ccc(Cn2nnc3c(N4CCCCCC4)ncnc32)cc1	-12	3	0.5	-1	7%	Arbovirus inh repeat=-9
CCCCNC(=O)c1ccc(NC(C)=O)c(Cl)c1	3	.	-1.2	3	-1%
CC1(OC(=O)CCc2ccccc2)C(=O)C=C2C=C(c3ccc(C#N)cc3)N(CCN3CCOCC3)C=C2C1=O (stereo not given)	.	.	-1.5	-1	-5%
CCOC(=O)C(C)n1cnc2scc(-c3ccc(C)c(C)c3)c2c1=O (stereo not given)	.	.	-0.9	4	.
Cc1cc(C)nc(/N=C(\N)Nc2ccc3c(c2)OCCO3)n1	-21	.	9.8	-13	-9%
CCOC(=O)Cn1nnnc1CN1CCN(c2ccc(OC)cc2)CC1	4	.	-2.8	-9	-8%
CN(CC(=O)O)S(=O)(=O)c1ccc2[nH]c(=O)c(=O)[nH]c2c1	.	.	-0.7	-5	-1%
CC1(OC(=O)CCc2ccccc2)C(=O)C=C2C=C(C3CC3)OC=C2C1=O (stereo not given)	.	.	-5.5	1	-4%
O=C(NCc1ccccn1)C(=O)Nc1ccccc1	9	.	-1.5	-2	1%
CC(/C=N/NC(=O)COc1ccccc1C)=N\NC(=O)COc1ccccc1C	.	.	-0.8	2	.
O=[N+]([O-])c1ccc(S(=O)(=O)N2CCN(Cc3ccco3)CC2)cc1	.	.	3.3	3	.
CCN(CC)Cc1c(O)c(Cl)cc2c(C)c(C)c(=O)oc12	1	-17	-182	9	-8%
CCCc1cc(-c2n[nH]c(=S)n2Cc2ccccc2)cs1	2	-7	3.6	-6	2%
Cc1cc2cc(CCNC(=O)C3c4ccccc4Oc4ccccc43)c(=O)[nH]c2cc1C	-15	-22	2.4	-1	.

Structures from the list above containing a CF3 group:
SMILES	Arbovirus inh	YopH PTP inh	RecA intein inh	Mtb betalactam	Mtb growth	others
O=C(CC1C(=O)NCCN1Cc1ccccc1C(F)(F)F)NC1CCCCCC1 (stereo not given)	.	.	3.6	1	.
O=C1COc2ccc(S(=O)(=O)N3CCN(c4cccc(C(F)(F)F)c4)CC3)cc2N1	.	.	-0.5	-1	.

Later entries:
SMILES	Arbovirus inh	YopH PTP inh	RecA intein inh	Mtb betalactam	Mtb growth	others
Cc1nc(SCC(=O)c2cc3ccccc3oc2=O)c(C#N)c(C)c1C(=O)Nc1ccccc1	-2	-32	.	.	2%
CC(=O)Nc1ccc(NC(=O)COC(=O)c2n[nH]c3ccccc23)cc1	0	.	-1.3	-7	5%
C1CCN(Cc2nnnn2CC2CCCO2)CC1 (stereo not given)	-1	.	0.9	-4	1%
CCCC(C(=O)NCc1ccccc1)N(C(=O)Cn1nnc(-c2cccs2)n1)c1ccc2c(c1)OCCO2 (stereo not given)	-14	-15	.	2	5%
O=C(CCOc1ccc(F)cc1)Nc1nccs1	.	.	1.2	-6	-8%
COc1ccc(C(=O)CSc2ccc3nnc(-c4cccnc4)n3n2)cc1	3	.	-2.7	-14	-6%
CCCCc1ccc(NC(=O)c2c(C)noc2C)cc1	-1	-4	0.4	-1	8%
O=C1CCCc2c1[nH]c1ccc(CN3CCCCC3)cc21	-13	-17	5.5	2	4%
COc1ccc(Cc2nnc(SCC(=O)N3CCCCC3)o2)cc1	-13	.	-3.6	3	3%
CCOc1ccccc1NC(=O)C1CCCN(S(=O)(=O)c2ccc(-n3cnnn3)cc2)C1 (stereo not given)	.	.	-1.8	-1	.
COc1cc2c(cc1NC(=S)Nc1ccccc1C)oc1ccccc12	1	-31	0.6	82	?
C=CCn1c(SCC(N)=O)nnc1-c1cc2c(s1)CCC(CC)C2 (stereo not given)	-1	-11	-3.5	3	-7%
O=[N+]([O-])c1cn(Cc2ccccc2)cn1	-12	-30	0.2	1	-3%
Cc1cc(C)cc(C(=O)NCC(=O)OCC(=O)NCC(F)(F)F)c1	7	.	-1.6	-1	7%
Cc1ccc(C(=O)OCC(=O)Nc2cc(C(C)(C)C)nn2-c2ccccc2)c(O)c1	.	.	1.4	-6	.
COc1ccc(N2CCN(Cc3nc4sc(C)c(C)c4c(=O)[nH]3)CC2)cc1	-10	.	-2.0	0	3%
Cn1c(SCC(=O)N2CCCCC2)nc2cccnc21	10	-36	-0.8	6	-7%
O=c1oc2ccccc2nc1/C=C(\O)c1ccccc1	.	.	6.0	98	6.6µM*
Cc1cc(C)n(-c2ccn(Cc3ccc(Cl)cc3Cl)c(=O)n2)n1	-10	-35	4.1	-9	-4%
COc1ccc(CCN(C)CCC(=O)Nc2cccc(C)c2)cc1OC	.	.	-0.5	-7	-9%
O=C(CC(Cc1ccccc1)C(=O)O)NCCc1ccc2c(c1)OCO2 (stereo not given)	0	-19	-2.1	10	-4%

The list is partial. The share of hits here may be higher or lower than overall.
